# Screens (PubChem BioAssay)
# AID504770 = growth inhibition of E. coli YBA685, primary screen, V. cholerae RctB inhibitors. E. coli YBA685 rctB-dependent plasmid, OD600 growth, 3 h; active compounds read low. z-score (no concentration beside the values). hit rate 0.27% among 130,000. AID 504770, 2011;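 active = z-score under -2 on both plates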;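 also: wells of about 30 µL received 100 nL stock; score is relative to mean and SD of the test wells; the first replicate is given; strong numbers were not always called active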
# CapD inh = Bacillus anthracis CapD inhibitors, primary screen, biochemical, fluorescence intensity | CapD gamma-glutamyltranspeptidase (Bacillus anthracis Ames Ancestor) | purified CapD enzyme, fluorescence intensity read-out; active compounds read low; some hits fall short of the stated cut | z-score (test concentration not listed) | hit rate 0.23% among 140,000 | AID 492967, 2010;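 active = z-score under -4 in either of two replicates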;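 also: stock transfer was 100 nL into about 40 µL; score is relative to mean and spread of the plate; one replicate is shown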
# Numbers without * were called inactive; nt = no result given. Random draw from the library, and some 0.37% of all compounds hit somewhere here.
SMILES,AID504770,CapD inh
CCOC(=O)C1=NN(c2ccc(OC)cc2)C2C(=O)N(c3ccccc3)C(=O)C12 (configuration not stated),nt,-1.05
COC(=O)C1=NNC2C(=O)N(c3ccc(Br)cc3)C(=O)C12 (configuration not stated),nt,6.07
COC(=O)c1nnn(CC(=O)NC(=O)Nc2ccccc2)c1C(=O)OC,-0.45,-0.005
CCOC(=O)N1CCC(NC(=O)c2ccc3nc(N4CCOCC4)sc3c2)CC1,-0.7,-1.02
Cc1ccccc1NC(=O)C1(N(C)C(=O)Cn2nnnc2N)CCCCC1,-0.35,0.165
COc1ccc(C2Nc3nc4ccccc4n3C(N)=C2C#N)cc1 (configuration not stated),0.2,0.92
C=CCn1cc(C(=O)c2cc(C)ccc2O)cc(C#N)c1=O,-0.65,nt
CCOC(=O)c1c(C=O)oc2c(C)cc(OC(=O)c3ccc(C)cc3)c(Br)c12,nt,0.465
O=C(NC1=NCCS1)c1ccccc1OCc1ccccc1,-0.75,0.355
C=CCn1c(SCC(=O)OCC)nc2cc(C(=O)NCc3ccco3)ccc2c1=O,-0.35,4.14
COC(=O)c1ccc(S(=O)(=O)NCc2ccc(N3CCN(C)CC3)cc2)o1,0.3,0.48
C=CCSc1nnc2c(n1)OC(CC)Nc1ccccc1-2 (configuration not stated),-1.1,0.06
CN(c1ccccc1)C1(O)C(=O)c2ccccc2C1=O,0.25,0.88
O=C(CCCc1nc(-c2ccccc2)no1)Nc1ccccc1,0.75,-0.135
CCn1c(=O)sc2cccc(Cl)c21,-0.75,0.525
Cc1nc(N2CCN(c3ccccn3)CC2)c2c(C)c(C(=O)N3CCN(C)CC3)sc2n1,nt,-0.24
CCOC(=O)c1oc2ccc(Br)cc2c1CSc1nnc(C)s1,-2.85,nt
CC1CCCCC1NC(=O)CSc1nncs1 (configuration not stated),-0.8,nt
CCCOC(=O)c1sc2nc3c(c(-c4ccco4)c2c1N)CCCCC3,nt,0.46
O=C(CCN1CCOCC1)Nc1cc(C(=O)N2CCc3ccccc3C2)ccc1N1CC2CC(C1)c1cccc(=O)n1C2 (configuration not stated),nt,-0.125
CSCCSc1nnnn1-c1ccc(O)cc1,-1.25,nt
NC(=O)c1cc(-c2csc(-c3ccccn3)n2)ccc1O,-0.6,nt
CCOC(=O)c1c(NC(=O)Cn2nc([N+](=O)[O-])c(Br)c2C)sc2c1CCC2,nt,-0.59
CCCC(=O)Nc1sc2c(c1C(N)=O)CCC2,-0.5,nt
CC(=O)N1CCc2ccccc2C1CNC1=CC(=O)CC(C)(C)C1 (configuration not stated),-0.4,0.235
SMILES,AID504770,CapD inh
O=C(O)c1ccc(OCC2CCCO2)cc1 (configuration not stated),-0.2,0.25
CCOc1ccccc1-c1n[nH]c(=S)n1N,-0.2,nt
Cc1cc(C)nc(SCC(=O)Oc2ccc3oc(=O)cc(C)c3c2)n1,-0.5,nt
O=C1CC(N(Cc2ccc3c(c2)OCO3)C(=O)Nc2ccc(F)cc2)C(=O)N1c1ccccc1 (configuration not stated),-0.3,-0.105
O=C(O)c1ccc(CN2CCCCC2)o1,-0.7,0.87
CSC(/N=C/N(C)C)=N/N=C/c1c(F)cccc1Cl,nt,-0.74
Cc1ccc(-c2ccccc2N)o1,0.4,54.9
CCc1[nH]c(=S)c(C#N)c(-c2ccccc2)c1C(=O)OC,-2.1,-1.23
Cn1c(=O)n(CC(=O)NCCC2=CCCCC2)c(=O)c2ccccc21,nt,-1.07
Cn1cnnc1Sc1ccc(Cl)cc1N,-0.95,nt
O=C(CCc1c[nH]c2ccccc12)Nn1c(SCC(=O)c2ccccc2)nc2ccccc2c1=O,nt,-0.55
COc1cccc(NC(=O)c2cc3c(=O)oc4ccccc4c3s2)c1,-0.6,-0.455
C=CCn1c(C)cc(C(=O)CSc2nc3ccccc3[nH]2)c1C,-0.15,nt
Nc1nnc(CCc2ccccc2)s1,-0.25,nt
CC(=NCCc1ccccc1)C1=C(O)CSC1=O,0,nt
Cc1cccc(C2C3=C(Nc4c2c(=O)[nH]c(=O)n4C)c2ccccc2C3=O)c1 (configuration not stated),1.7,-0.12
C[C@H]1CC2C([C@@H](O)C[C@@]3(C)C2CC[C@]3(O)C(=O)CO)[C@@]2(C)C=CC(=O)C=C12 (some centres not stated),0.35,0.28
CC1CCCC(NC(=O)COC(=O)CCc2ccccc2)C1C (configuration not stated),-0.9,-0.65
O=C(CCc1ccccc1)NCC1COC2(CCCCC2)O1 (configuration not stated),-0.4,nt
c1ccc(Cc2nc3ccccc3[nH]2)cc1,-0.45,0.345
Cc1ccc(Nc2ccc3noc4c3c2C(=O)c2ccccc2-4)cc1,-0.05,0.345
Cc1nn(C(N)=S)c2c1CC(COCCC(C)C)O2 (configuration not stated),-0.2,-0.955
COc1ccc(CN2C(=O)CC(C(=O)Nc3ccc(C(=O)O)cc3)SC2=Nc2ccc(Cl)cc2)cc1 (configuration not stated),nt,-0.1
COc1cc(-c2nc3ccc(Cl)cn3c2NC(C)(C)C)ccc1O,0.6,nt
CSc1ccccc1NC(=O)c1sc2ccccc2c1Cl,nt,-0.46

# Part of the list above in another layout.
C[C@H]1CC2C([C@@H](O)C[C@@]3(C)C2CC[C@]3(O)C(=O)CO)[C@@]2(C)C=CC(=O)C=C12 (some centres not stated)
  AID504770: 0.35
  CapD inh: 0.28

CC1CCCC(NC(=O)COC(=O)CCc2ccccc2)C1C (configuration not stated)
  AID504770: -0.9
  CapD inh: -0.65

O=C(CCc1ccccc1)NCC1COC2(CCCCC2)O1 (configuration not stated)
  AID504770: -0.4
  CapD inh: nt

c1ccc(Cc2nc3ccccc3[nH]2)cc1
  AID504770: -0.45
  CapD inh: 0.345

# Next records follow.
SMILES,AID504770,CapD inh
COc1ccc(C(CC(=O)NCc2ccc(C)cc2)N2Cc3ccccc3C2=O)cc1OC (configuration not stated),-1.3,4.82
CC(C)C1C(C#N)=C(N)Oc2c1oc(CO)cc2=O (configuration not stated),-0.35,nt
NCC(=O)c1ccc(Cl)cc1,nt,0.68
COc1ccc(N2C(=O)NC(=O)/C(=C\c3ccc(OCC(=O)O)c(Br)c3)C2=O)cc1,nt,-0.185
Cc1cc2nc3c(=O)[nH]c(=S)[nH]c3nc2cc1NC(=O)C(F)(F)F,-0.25,-0.925
O=C(Cn1cc(C(=O)C2CCCCC2)c2ccccc21)Nc1ccccc1,0.25,0.095
CC(C)COC(=O)C1C2C=CC3(CN(Cc4cccs4)C(=O)C13)O2 (configuration not stated),-0.55,-0.545
Cc1cccc(-c2nc(CS(=O)CC(=O)NC3CCCCCC3)c(C)o2)c1 (configuration not stated),-0.5,0.325
CC[C@@H](CO)NC(=O)c1cc2cc(S(C)(=O)=O)ccc2[nH]1,nt,-0.14
COc1ccc2c(CCN)c[nH]c2c1,-1.1,0.09
Cc1cc(OCC(=O)Nc2ccccc2N2CCN(C(=O)C(C)C)CC2)cc(C)c1Cl,-0.2,0.3
COc1ccccc1CCOC(=O)NCCOc1ccccc1,nt,-0.605
CC(C)=Cc1c(O)nc2ccccn2c1=O,0.7,-0.77
CCNC(=O)N(c1ccc2c(c1)CCN2C(C)=O)C1CCN(C)CC1,nt,-0.395
Cc1nn(C(=O)C2CC2)c(C)c1Sc1ccccc1,-0.05,nt
c1ccc(-c2cc(-c3ccccc3)n3ncnc3n2)cc1,0.45,4.2
CC(C)OC(=O)CN1CCN(c2ccc(Cl)cc2)CC1,-1.45,nt
O=C1c2ccccc2NC(c2ccc3c(c2)OCO3)N1c1ccc(Br)cc1 (configuration not stated),nt,67.5
Cn1c(O)c(C=NC(Cc2c[nH]c3ccccc23)C(=O)O)c(=O)n(C)c1=O (configuration not stated),1.8,-0.305
CCOC(=O)c1sc(NC(=O)C(C)Sc2nnc(CNC(=O)c3ccccc3F)n2C)c(C(=O)OCC)c1C (configuration not stated),nt,-1.17
CCN1CCN(CCCNC(=O)c2ccc3c(=O)n4c(nc3c2)CCCCC4)CC1,-0.2,0.88
O=C(c1ccc(Cl)cc1)N1CCC(O)(CSc2ccc(Cl)cc2)CC1,nt,0.82
COc1ccc(OC)c(/C=C/C(=O)Nc2cc(C(N)=O)cc(C(N)=O)c2)c1,1,nt
Cc1cc(C(O)(C(F)(F)F)C(F)(F)F)c(C)n1-c1ccccc1,-1.2,-1.02
CCOC(=O)CC(=O)CSc1nc2cc(C(=O)NCc3ccco3)ccc2c(=O)n1C1CCCCC1,nt,1.05

# Reprinted at random: 7 entries already listed, in no set order.
SMILES,AID504770,CapD inh
Cc1cc(OCC(=O)Nc2ccccc2N2CCN(C(=O)C(C)C)CC2)cc(C)c1Cl,-0.2,0.3
CC(=NCCc1ccccc1)C1=C(O)CSC1=O,0,nt
CC[C@@H](CO)NC(=O)c1cc2cc(S(C)(=O)=O)ccc2[nH]1,nt,-0.14
CC(C)COC(=O)C1C2C=CC3(CN(Cc4cccs4)C(=O)C13)O2 (configuration not stated),-0.55,-0.545
CCOC(=O)c1c(NC(=O)Cn2nc([N+](=O)[O-])c(Br)c2C)sc2c1CCC2,nt,-0.59
COC(=O)c1ccc(S(=O)(=O)NCc2ccc(N3CCN(C)CC3)cc2)o1,0.3,0.48
Cc1cccc(C2C3=C(Nc4c2c(=O)[nH]c(=O)n4C)c2ccccc2C3=O)c1 (configuration not stated),1.7,-0.12

# Further compounds.
SMILES,AID504770,CapD inh
COc1cc(NC(=O)C2CCCCC2)c(OC)cc1NC(=O)CCC(=O)NCc1ccco1,-0.8,nt
CSc1c(C#N)c(N)nc2sc(C(=O)c3ccc(Cl)c(Cl)c3)c(N)c12,0.45,0.44
COC(=O)c1sc(N)c(C(=O)OC)c1Cn1nnc(-c2ccccc2)n1,2,nt
COC(=O)c1cc(CSc2nc3ccccc3n2CCC#N)oc1C,0.85,nt
Cc1ccc(CNc2ccc(Cl)cc2)s1,-0.55,nt
N=C(N)SCc1ccccc1Cl,nt,0.425
Cc1cccc(/C=C2\SC(=O)N(C)C2=O)c1,1.4,-0.725
O=C(N1CCCCC1)N1c2ccccc2CC(N2CCCCC2)c2ccccc21 (configuration not stated),nt,-0.73
CN(C)C=NC(=O)c1sc(S(C)(=O)=O)c2c1CCC=C2,-1,0.235
Cc1noc(/C=C/c2ccco2)c1S(=O)(=O)N1CCC(C(=O)O)CC1,0.25,-1.73
CCCc1[nH]n(-c2ccc(F)cc2)c(=O)c1C=Nc1ccc(C)c(C)c1,nt,0.445
CC(=O)Nc1ccc2c(CSc3nncs3)cc(=O)oc2c1,0.7,nt
CN1C(=O)C(=Cc2nc3ccccc3c(=O)n2Cc2ccccc2)c2cc(Br)ccc21,nt,-0.525
CC1CCN(c2ncnc3c2cnn3Cc2ccc(Cl)cc2)CC1,0,-0.14
C=CC1CN2CCC1CC2C(OC(C)=O)c1ccnc2ccc(OC)cc12 (configuration not stated),nt,23.6
CCN(C(=O)c1cnccc1C(F)(F)F)c1ccc(Cl)cc1Cl,0.35,1.13
CCOC(=O)c1ccc(NC2CCCc3c2[nH]c2ccc(C)cc32)cc1 (configuration not stated),0.45,-0.31
CNS(=O)(=O)c1cn(CC(=O)N2CCc3ccccc32)cc1S(=O)(=O)NC,0.65,0.545
CC(Sc1nncn1C)C(=O)Nc1ccc(S(N)(=O)=O)cc1 (configuration not stated),0.3,nt
COc1cc(C2NC(=O)NC(C)=C2C(=O)OCC2CCCCC2)cc(Cl)c1O (configuration not stated),nt,0.115
CCCCc1nc2sc3c(=O)[nH]cnc3c2c2c1CCCC2,-1.2,-1.17
CCCCN(C)C(=O)Cn1nc(C)c2c(C)n(-c3ccccc3)nc2c1=O,0.45,0.41
O=C(CSc1nnc2sc3ccccc3n12)NCC(F)(F)F,-0.15,nt
CC1(CCC#N)N=C(SCCC#N)N(c2ccccc2)C1=O (configuration not stated),-0.15,nt
CC(C)Nc1nc(SCc2ccccc2Cl)nc(-c2ccccc2)c1C#N,nt,1.44
SMILES,AID504770,CapD inh
CC1CCc2oc3ccc(NS(=O)(=O)c4ccc(C(C)(C)C)cc4)cc3c2C1 (configuration not stated),nt,-0.395
O=C(NC(C(F)(F)F)C(F)(F)F)OCc1ccccc1,-0.95,10.3
O=C(CN1C(=O)/C(=C/c2ccccc2)SC1=S)NC1CCCCC1,0.1,0.25
CC(C)N(C(=O)CSc1nnnn1C1CCCC1)C(C)C,-0.85,nt
O=C1Nc2ccccc2C1=Cc1nc2ccccc2c(=O)n1-c1ccc(Br)cc1,nt,-0.35
CCC(=O)N(c1ccc2[nH]c(C)cc2c1)C1CCN(C(C)=O)CC1,nt,0.415
CCCc1c(C(=O)Sc2ccc(Cl)cc2)cnn1-c1ccccc1,0.4,0.555
CCC(=O)Oc1ccc(C(=O)N2CCCCC2)cc1,0.25,0.39
CC(C)C(OC(=O)c1ccco1)C(=O)NCc1ccccc1 (configuration not stated),-0.4,nt
CC(C)(C)c1ccc(Oc2ccccc2/C=C2\SC(=O)NC2=O)cc1,nt,0.255
COc1ccc(C)cc1-n1c(SCC#N)nc2sc(C)c(C)c2c1=O,0.95,nt
O=C(CSc1cccc[n+]1[O-])Nc1ccccc1,-0.5,0.255
O=C(NNc1ccccc1)c1ccccc1,-1.9,1.07
Cc1ccc(CSc2nnc(OC(=O)N(C)C)n2-c2cccc(Cl)c2)cc1,1.6,10.4
Cc1ccc(C(=O)[C@@H]2[C@@H](c3ccsc3)C(C#N)(C#N)[C@H]3C=Cc4ccccc4N23)cc1,nt,1.31
CCC/C(=N\O)c1c[nH]c2ccccc12,1.55,-0.115
Cc1c(C(=O)Nc2ccc(F)cc2F)sc2ncnc(N(C)c3ccccc3)c12,0.25,0.925
O=C1C2C3c4ccccc4C(CO)(c4ccccc43)C2C(=O)N1c1cccc2ccccc12 (configuration not stated),nt,0.01
C=CCNc1cc(-c2ccccc2)nc2nncn12,-0.5,11
COCCNS(=O)(=O)c1cc(Br)cc2c1N(C(C)=O)CC2,-1.55,0.17
CCN(CC)CCn1c(N)nc2ccccc21,-0.65,-0.285
O=C(N/N=C1/C(=O)c2cccc3cccc1c23)NC1CCCCC1,-0.25,nt
Cc1cccc2nc(CBr)cn12,-0.95,0.32
